Screening results from PubChem BioAssay.
PINK1 expr mod = A Quantitative High throughput Screen to Identify Chemical Modulators of PINK1 Expression; 410,000 tested, 0.2% active; Potency, µM (titrated, usually from 76.6 µM), without a hit: at the top dose activation (PINK1 increase), most hits filed as activators; AID 624263, 2012; PINK1 immunofluorescence, high-content cytometry, 24 h; active = well fitted activation curve with a large enough effect; inconclusive = small, poorly fitted or top-dose-only effect; inactive = flat fitted curve, though single readings scatter; cell line not stated here;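 note: potency is the fitted concentration of half-maximal effect; % of control where 0% means no effect; nearly all actives have a fitted effect of over 65% in size; a mitochondrial uncoupler was the plate control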
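Readout is PINK1 immunofluorescence, quantified alongside mitochondrial, cell and nuclear markers by laser-scanning microplate cytometry. Cells from a stable line were exposed to compound titrations (5 concentrations) for 24 hours, with CCCP controls.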
Sfp inh = qHTS Assay for Inhibitors of Bacillus subtilis Sfp phosphopantetheinyl transferase (PPTase). 4'-phosphopantetheinyl transferase ffp (Bacillus subtilis), Q9F4F7. Biochemical Sfp PPTase activity, qHTS. Potency, µM, for inactives: max response, negative = inhibition, actives largely listed as inhibitors. 310,000 tested, 3.5% active; active = well fitted inhibition curve with a large enough effect; inconclusive = small, poorly fitted or top-dose-only effect, or another doubt; inactive = no such curve, though single readings can be large or run the other way;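 note: the enzyme is Sfp with the accession as filed and its product quenches rhodamine fluorescence; potency is the fitted concentration of half-maximal effect; 0% = enzyme reaction without inhibitor and -100% = no enzyme wells; top concentration of the series not given in the record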
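Buffer: 50 mM Hepes-Na pH 7.6, 10 mM MgCl2, 0.01% Nonidet P-40, 0.01% BSA. Enzyme 15 nM, pre-exposed to compound 15 min; substrates then added and fluorescence change tracked over 30 min.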
Menin MLL FP FL = qHTS Assay for Inhibitors Targeting the Menin-MLL Interaction in MLL Related Leukemias: Competition With Fluorescein Labeled MLL-derived Peptide | Fluorescence polarization, fluorescein-MLL peptide displacement from menin | FP activity change, % at 61.4 µM | 290,000 tested, under 10 active | AID 1766, 2009; inconclusive = falling polarisation curve, or a change in total fluorescence; inactive = total fluorescence flat and polarisation flat or rising; no compound was filed as active; the % refers to the polarisation; negative = inhibition;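 note: % of control where 0% means no effect; inhibitors lower the polarisation; unlabelled MLL peptide was the positive control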
TRPV1 PAM = HTS Assay for Compounds that Act as Potentiators of the Vanilloid Receptor 1; Transient receptor potential cation channel subfamily V member 1 (Homo sapiens), Q8NER1; TRPV1-expressing cells, Fluo-8 calcium influx, capsaicin EC20 potentiation; host cell line not named in the record; control for the full effect not named in the record; potentiation, % at 8.33 µM; 320,000 tested, 0.02% active; AID 540277, 2011; active means potentiation above 80%; inconclusive means 30% to 80%; inactive means below 30%; note: 0% is about no effect
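Cells expressing TRPV1 were dye-loaded with Fluo-8 and read kinetically: 10 s baseline, 3 min after compound (agonist portion), then 2 min after EC20 capsaicin (allosteric enhancer portion). Calcium-bound dye fluorescence at 480/520 nm.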
TRPML1 agonist = qHTS for Agonists of the Human Mucolipin Transient Receptor Potential 1 (TRPML1) | Mucolipin-1 (Homo sapiens), Q9GZU1 | TRPML1-expressing cells, Ca2+ dye fluorescence, FDSS; host cell line not named in the record; reference of the full effect not given here | 410,000 tested, 0.12% active | activation, % (concentration not given with the values); in the data active = activation above about 50%; inconclusive = about 30% to 50%; inactive = below about 30%; note: 0% is about no effect; the text of the record puts the active cut at 80%
Target sequence (Q9GZU1 whole entry, looked up): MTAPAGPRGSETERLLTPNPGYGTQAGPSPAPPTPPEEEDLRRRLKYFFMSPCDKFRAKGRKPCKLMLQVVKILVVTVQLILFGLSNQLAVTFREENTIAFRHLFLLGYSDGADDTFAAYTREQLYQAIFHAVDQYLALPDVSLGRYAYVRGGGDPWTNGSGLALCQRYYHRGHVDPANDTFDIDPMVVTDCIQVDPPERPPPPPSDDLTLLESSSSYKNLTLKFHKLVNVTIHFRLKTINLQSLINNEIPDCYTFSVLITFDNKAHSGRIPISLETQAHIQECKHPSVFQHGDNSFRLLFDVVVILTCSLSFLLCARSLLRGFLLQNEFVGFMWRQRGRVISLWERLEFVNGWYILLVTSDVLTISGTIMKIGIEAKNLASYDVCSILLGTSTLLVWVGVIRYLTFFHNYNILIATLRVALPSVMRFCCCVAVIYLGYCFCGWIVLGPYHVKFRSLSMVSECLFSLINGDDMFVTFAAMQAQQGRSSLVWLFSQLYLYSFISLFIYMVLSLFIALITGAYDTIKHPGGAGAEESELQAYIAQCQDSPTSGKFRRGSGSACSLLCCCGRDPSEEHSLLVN
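TRPML1-DL cells, Tet-induced overnight (~16 h, 37 degrees C), loaded 45-90 min at room temperature with Ca8 no-wash calcium dye plus quencher. FDSS fluorescence: 10 s baseline, compound pin-transfer, 110 s agonist read, then EC80 54-4 (4uM final) and 110 s antagonist read.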
ClpP mod = qHTS Assay for Activators of ClpP; ATP-dependent Clp protease proteolytic subunit (Bacillus subtilis (strain 168)), P80244; purified B. subtilis ClpP, FRET peptide cleavage, 20 min; Potency, µM (doses to about 57.5 µM), inactives show at the highest dose activity change, negative = active; 340,000 tested, 1.9% active; AID 651965, 2013; active = well fitted falling curve with a large enough effect; inconclusive = small, poorly fitted or top-dose-only effect; inactive = no such curve, though single readings can be large or run the other way; note: potency is the fitted concentration of half-maximal effect; the source files actives as falling curves though it sought activators and does not explain the sign; nearly all actives have a fitted effect of over 65% in size; many hits overshoot -100%
Target sequence (P80244 whole entry, looked up): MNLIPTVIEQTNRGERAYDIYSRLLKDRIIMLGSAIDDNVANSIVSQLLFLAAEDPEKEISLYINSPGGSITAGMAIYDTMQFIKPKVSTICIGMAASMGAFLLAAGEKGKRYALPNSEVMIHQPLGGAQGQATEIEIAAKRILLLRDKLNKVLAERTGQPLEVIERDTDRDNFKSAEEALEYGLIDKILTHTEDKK
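FRET quenching reversal measured ClpP activation: 10 microg/mL B. subtilis ClpP at pH 8 with the FRET-FV decapeptide, read at 430 nm after 320 nm excitation. The 20-min minus 0-min signal was scaled between DMSO/no-enzyme wells and ADEP (5.8 microM final).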
TRPML1 inh = qHTS for Inhibitors of the Human Mucolipin Transient Receptor Potential 1 (TRPML1) | AID 624415, 2012 | 390,000 tested, 0.02% active | TRPML1-inducible cells, Ca2+ dye fluorescence, FDSS; active compounds read low; inhibition of EC80 agonist-evoked calcium signal | activity change, negative = inhibition, % (no concentration beside the values); in the data active means activity change below about -50%; inconclusive means about -30% to -50%; inactive means above about -30%;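 note: stimulus is agonist 54-4 at its EC80 concentration; % is set by controls: 0 for no effect and ±100 for the full control effect; compound concentration not given in the record; the text of the record puts the active cut at -80%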
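TRPML1-DL cells, Tet-induced overnight (~16 h, 37 °C) at 1,500 cells/well, were loaded with Ca8 no-wash dye plus quencher for 45-90 min at room temperature. Compounds were pinned during FDSS kinetic reading; agonist 54-4 at EC80 (4 uM final) then added.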
The depositor's hits bear a star; ? = inconclusive; . = not tested or not shown; & = joins results of further samples; [ ] = remark or other dose.

Preview:
cpd	Structure	Menin MLL FP FL	Sfp inh	PINK1 expr mod	TRPML1 inh	TRPV1 PAM	TRPML1 agonist	ClpP mod
1	COc1cccc2c1Oc1ncccc1N(C(=O)CCC(=O)NCc1ccccc1F)C2	.	5%	2.0%	-14	?	0.4	-1.2%
2	O=[N+]([O-])c1ccc(-c2ccc(/C=N/c3c(-c4ccco4)nc4ccccn34)o2)cc1	0.6	-11%	13%[38.3 µM]	1	4	-0.4	?

All compounds of this part, repeating the preview:
cpd	Structure	Menin MLL FP FL	Sfp inh	PINK1 expr mod	TRPML1 inh	TRPV1 PAM	TRPML1 agonist	ClpP mod
1	COc1cccc2c1Oc1ncccc1N(C(=O)CCC(=O)NCc1ccccc1F)C2	.	5%	2.0%	-14	?	0.4	-1.2%
2	O=[N+]([O-])c1ccc(-c2ccc(/C=N/c3c(-c4ccco4)nc4ccccn34)o2)cc1	0.6	-11%	13%[38.3 µM]	1	4	-0.4	?
3	COc1ccc(N=Nc2nc3cc(Br)c(Br)cc3n2C)c(OC)c1	?	?	2.1%	5	-15	3.8	-1.2%
4	O=C1c2ccccc2C(=O)N1CCCCSc1nnc(-c2ccc(OC(F)F)cc2)o1	3.1	17%	-3.5%	-7	11	3.1	-5.3%
5	COc1cccc(CSc2nnc(-c3ccncc3)n2C)c1	1.0	17%	-0.2%	-27	6	-0.6	.
6	CCOc1ccc(OCCC(=O)N(CC)CC(=O)Nc2ccccc2OC)cc1	.	.	0.8%	-15	.	0.9	.
7	O=C(Nc1ccc([N+](=O)[O-])cn1)C1CC2CCC1C2 (stereo not drawn)	-1.6	2%	-2.1%	21	-10	0.1	-0.9%
8	COc1ccc(-n2c(C)cc(C(=O)COc3ccc(-n4cnnn4)cc3)c2C)cc1	0.5	2%	0.7%	31	8	-0.3	-8.8%
9	Nc1ccc2oc(-c3ccccc3Cl)nc2c1	1.5	-1%	0.9%	11	9	-0.8	1.6%
10	COc1ccc(NC(=O)C2C3C=CC4(O3)C2C(=O)N(CCN2CCCCC2C)C4C(=O)NC2CCCC(C)C2C)cc1 (stereo not drawn)	-3.9	9%	2.2%	22	21	0.1	.
11	CCOc1ccc2nc(N3CCCC(C(=O)Nc4ccc(OC)cc4)C3)sc2c1 (stereo not drawn)	.	.	1.2%	-13	.	-1.1	-3.2%
12	O=C1CS/C(=N/N=C/c2ccccc2)N1Cc1ccco1	2.7	?	1.8%	-5	-4	-0.4	-1.2%
13	CCc1ccc(CNC(=O)Cn2nc(C)c3nn(-c4ccc(Cl)cc4)c(C)c3c2=O)cc1	.	.	0.8%	6	.	0.3	-3.0%
14	Cn1c(=O)[nH]c(=O)c2c1nc(NCc1ccco1)n2Cc1ccccc1Cl	1.8	12%	3.2%	-6	2	-0.6	-2.5%
15	CCNC(=S)N(CCN(C)C)Cc1cc2cc3c(cc2[nH]c1=O)OCO3	-6.8	8%	-1.6%	1	-14	0.2	4.0%
16	O=C(NCC(c1ccco1)N1CCc2ccccc2C1)c1cccc(Br)c1 (stereo not drawn)	.	.	-1.2%	-1	-18	-0.2	-1.7%
17	Cc1ccc(S(=O)(=O)NNC(=S)Nc2ccccc2)cc1	1.1	-15%	18%	14	-5	1.1	0.7%
18	Cc1ccc(NC(=O)CN2C(=O)NC3(CCCc4ccccc43)C2=O)cc1S(=O)(=O)N1CCOCC1 (stereo not drawn)	1.0	21%	3.2%	4	19	0.7	.
19	CC1CCCC(NC(=O)COC(=O)Cc2ccc(Cl)cc2)C1C (stereo not drawn)	.	.	0.1%	6	.	-0.2	2.6%
20	CO/N=C/NC(=O)NOCc1ncc(C(F)(F)F)cc1Cl	2.3	-1%	-1.5%	-7	-14	-1.2	-19%
21	Clc1ccccc1Cc1noc(CN2CCSCC2)n1	-0.1	4%	1.7%	-9	-9	-0.3	.
22	Cc1ccc(-c2cc(C(=O)NCCc3ccccc3)c3ccccc3n2)cc1C	.	.	0.5%	8	.	-0.3	3.6%
23	O=C(/C=C/c1ccc(Cl)cc1)NCCN1CCOCC1	1.2	12%	-4.0%	-13	-15	-0.4	0.7%
24	Cc1ccc(NC(=O)CN(C)C(=O)C2CSC3(C)CCC(=O)N23)cc1 (stereo not drawn)	.	.	-1.5%	27	.	-0.4	-2.3%
25	COc1cccc(CN(C(=O)c2oc3cc(C)ccc3c2C)C2CCS(=O)(=O)C2)c1 (stereo not drawn)	.	.	0.4%	30	.	0.8	-3.2%
26	O=C1CN(S(=O)(=O)c2ccc(F)cc2)c2ccccc2N1	0.4	16%	0.9%	23	-9	0.5	.
27	CCc1ccccc1NC(=O)Cn1c(=O)n(Cc2ccco2)c(=O)c2sc3ccccc3c21	.	.	-0.4%	23	.	-0.5	-17%
28	Clc1ccc(CN(Cc2ccccc2)C(c2cccs2)c2nnnn2C2CCCC2)cc1 (stereo not drawn)	4.7	9%	1.4%	8	2	0.2	0.7%
29	CCN(Cc1ccncc1)Cc1c(O)ccc2ccccc12	-6.5	-3%	-0.8%	-1	11	0.2	-0.4%
30	Cc1c(Cl)cccc1NC(=O)CCN1CCN(CCO)CC1	-0.4	-3%	0.8%	-3	17	0.2	-3.7%
31	COc1ccc(/C=N/Nc2nc(N)cc(Cl)n2)cc1OC	1.9	8%	-1.8%	-2	3	2.0	-0.4%
32	Cc1ccc(CS(=O)Cc2ccc(C(=O)NCCCc3ccccc3)o2)cc1 (stereo not drawn)	.	.	1.0%	2	.	-0.5	-1.0%
33	O=C(NC1CC1)C1CCN(C2CCN(C(=O)c3ccc(C(F)(F)F)cc3)CC2)CC1	-3.0	15%	-1.0%	-6	-10	-0.2	-0.7%
34	Cc1ccc(Cc2c(-c3ccc(C#N)cc3)nc3ccc(Br)cn23)cc1	.	.	1.0%	42	.	-0.7	-3.3%
35	N#CCOc1ccccc1/C=N/n1nnnc1N	2.9	17%	-0.1%	17	19	-1.4	0.5%
36	CCOc1ccc(N2C(=O)CCC2=O)cc1	1.5	27%	4.0%	-1	6	-0.8	-0.3%
37	Cc1ccc(S(=O)(=O)N2CCN(c3ncnc4scc(-c5ccc(F)cc5)c34)CC2)cc1	.	.	1.7%	-10	4	2.8	.
38	CCC1CCCCN1CCCNC(=O)c1cc2c(Cl)nc3ccccc3c2s1 (stereo not drawn)	-6.4	11%	-0.1%&-0.6%	-1&-1	6	1.0&-0.6	-0.4%&-2.0%
39	CC(C)n1c(=O)c2ccccc2n1CC(=O)N1CCOCC1	.	.	1.9%	.	.	-0.7	4.8%
40	Cc1ccc(C)c(NC(=O)CCS(=O)(=O)c2cccc3nsnc23)c1	.	.	0.0%	8	.	1.1	-0.8%
41	CCC(C)C(NC(=O)c1ccccc1NC(=O)c1ccccc1)C(=O)N1CCOCC1 (stereo not drawn)	0.5	6%	2.4%	8	-22	-0.4	-4.7%
42	CCC(=O)N1CCc2cc(Br)cc(S(=O)(=O)CCC(=O)N3CCN(c4ccc(OC)cc4)CC3)c21	.	.	0.3%	-10	.	-0.5	-1.5%
43	N#CN=C(N)c1ccccc1	-1.9&-0.9	20%&23%	.	-4	-22&-13	0.3	-0.2%
44	CC1CCN(C(=O)CSc2nnc(-c3ccco3)o2)CC1	0.8	16%	-1.8%	9	-20	0.4	-0.9%
45	Cc1cc(C)c(C#N)c(SCC(=O)N2CCN(Cc3ccccc3)CC2)n1	0.4	1%	-1.6%	-19	-8	0.1	1.0%
46	Cc1ccc(-c2nc3cc(Cl)ccc3o2)cc1NC(=O)c1cc([N+](=O)[O-])ccc1N1CCOCC1	.	.	0.9%	6	.	-0.5	-1.2%
47	CCCn1c(=S)[nH]c2cc(C(=O)N3CCc4ccccc43)ccc2c1=O	1.4	10%	-3.7%	15	-7	-1.2	-1.0%
48	Cc1cc(C(=O)N2CCC(CO)(Cc3cccc(C(F)(F)F)c3)CC2)n[nH]1	0.8	14%	-0.7%	5	-16	-0.9	-1.6%
49	CCCCNC(=S)NNC(=O)c1ccco1	0.3	13%	-0.8%	8	8	0.9	8.8%
50	COc1ccc(N2CCN(CCCNC(=O)CCCn3c(=O)[nH]c4ccsc4c3=O)CC2)cc1	-0.9	0%	-1.8%	9	2	0.2	-7.3%
51	Cc1cc(C(=O)CN2C(=O)NC(Cc3c[nH]c4ccccc34)C2=O)c(C)n1C (stereo not drawn)	0.8	-5%	0.8%	2	3	-1.1	-0.7%
52	COc1ccc(NC(=O)CC(C)CC(=O)NCc2ccccc2)c(OC)c1 (stereo not drawn)	0.7	12%	0.3%	11	2	0.0	0.5%
53	COc1cc(C(=O)OCc2csc(CC(=O)Nc3cc(C)ccc3C)n2)ccc1OC(F)F	.	.	4.5%	-9	.	1.8	6.2%
54	CCCCc1nnc(NC(=O)COC)s1	0.9	13%	-1.3%	11	-11	-0.6	.
55	O=C(CN1CCN(Cc2ccccc2F)C1=O)NCCc1ccc(Cl)cc1	2.7	5%	0.1%	-7	-6	-0.9	0.9%
56	CCCn1c(=O)c2sccc2n2c(CCCC(=O)NC3CCN(Cc4ccccc4)CC3)nnc12	.	10%	1.2%	6	-3	-0.1	-17%
57	NC(=O)c1c(NC(=O)c2ccncc2)sc2c1CCCC2	-5.3	9%	0.0%	-19	-2	2.2	-1.0%
58	COc1ccc(C(=O)NCc2nnc(SCC(=O)NCCc3ccccc3)o2)cc1	.	-14%	1.5%	-8	7	-0.2	3.9%
59	Cc1ccc2nc(CSc3nnc(-c4ccco4)o3)cc(=O)n2c1	6.1	-26%	3.8%	9	3	-0.1	-14%
